AF4-AF9 inh: inhibitors of human MLL-AF4/AF9 interaction; AlphaScreen, biotin-AF4 peptide binding to FLAG-AF9; inhibition, % at 10 µM; actives 0.47% (n = 350,000); AID 651704;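 active means every replicate reaching a set inhibition limit, whatever the replicate mean, cut at about 25% in these data; inconclusive means mean inhibition reaches that limit but some replicates miss it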;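 further: 0% = plate neutral control median and 100% = total signal loss; the record names both 10 and 1 µM as test concentration; the first replicate is given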
Target sequence (P42568 whole entry, looked up): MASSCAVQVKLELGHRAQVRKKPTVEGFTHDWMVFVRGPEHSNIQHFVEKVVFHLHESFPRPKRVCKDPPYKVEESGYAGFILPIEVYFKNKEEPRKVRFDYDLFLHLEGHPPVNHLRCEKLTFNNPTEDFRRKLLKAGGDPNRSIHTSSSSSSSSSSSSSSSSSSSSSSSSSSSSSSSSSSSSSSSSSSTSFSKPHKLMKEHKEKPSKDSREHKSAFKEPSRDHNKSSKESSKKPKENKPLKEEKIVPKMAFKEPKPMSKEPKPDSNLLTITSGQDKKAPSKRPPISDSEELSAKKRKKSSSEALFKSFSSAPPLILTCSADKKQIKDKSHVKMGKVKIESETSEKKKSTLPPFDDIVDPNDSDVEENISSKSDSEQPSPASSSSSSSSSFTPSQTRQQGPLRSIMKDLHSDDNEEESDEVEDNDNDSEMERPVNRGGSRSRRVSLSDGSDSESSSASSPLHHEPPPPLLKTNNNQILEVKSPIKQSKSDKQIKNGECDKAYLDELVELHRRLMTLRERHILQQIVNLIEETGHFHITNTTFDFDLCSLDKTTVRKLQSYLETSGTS
UCH37 inh: inhibitors of human deubiquitinating enzyme UCH37; actives 0.33% (n = 330,000); purified proteasome/UCH37, Ub-AMC cleavage fluorescence; AID 588478; inhibition, % (no concentration beside the values);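 active means mean of two replicates above 20%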;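 further: 0% = compound-free wells with enzyme and 100% = wells lacking proteasome; stock transfer was 100 nL into about 20 µL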
Target sequence (Q9Y5K5 whole entry, looked up): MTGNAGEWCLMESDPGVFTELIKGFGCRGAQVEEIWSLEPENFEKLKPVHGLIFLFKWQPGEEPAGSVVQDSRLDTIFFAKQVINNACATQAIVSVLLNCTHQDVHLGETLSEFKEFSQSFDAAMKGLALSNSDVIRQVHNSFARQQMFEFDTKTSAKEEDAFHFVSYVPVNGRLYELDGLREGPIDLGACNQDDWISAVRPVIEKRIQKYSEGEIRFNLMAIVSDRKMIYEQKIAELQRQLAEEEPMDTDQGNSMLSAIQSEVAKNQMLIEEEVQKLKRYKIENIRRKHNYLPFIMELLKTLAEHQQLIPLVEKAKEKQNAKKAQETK
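System: Proteasome-associated human UCH37 deubiquitinase; Input: 0.15 nM proteasome in added enzyme buffer; Also added: Ub-AMC substrate from 1 µM stock; Incubation: 30 min compound-proteasome preincubation then 25 min substrate reaction, room temperature; Detection: fluorescence, ex 355 nm, em 460 nm; Read-out: % inhibition of Ub-AMC cleavage fluorescence; Benchmarks: no-proteasome and no-compound wells.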
FGF22 binding: binders of recombinant human FGF22 by thermal shift; SYPRO orange fluorescence; percent of sucrose octasulfate shift, DMSO zero; actives 1.5% (n = 340,000); Q9HCT0; AID 651658; calls only at 9.99 µM;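 active means melting point raised past a set limit in the mean and every replicate; inconclusive means no clear call; three in four hits are not shown here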
Target sequence (Q9HCT0 whole entry, looked up): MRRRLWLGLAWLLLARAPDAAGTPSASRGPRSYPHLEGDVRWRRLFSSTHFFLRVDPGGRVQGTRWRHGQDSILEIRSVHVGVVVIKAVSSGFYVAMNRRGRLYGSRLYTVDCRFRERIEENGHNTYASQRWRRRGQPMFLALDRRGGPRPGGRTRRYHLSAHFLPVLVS
RanGTP-Impb inh: disruptors of Ran-importin-beta complex formation – biochemical, FRET, CFP-Ran, YFP-importin-beta, homogeneous, primary screen; cell-free CFP-Ran/YFP-importin-beta FRET ratio; inhibition, % (no concentration beside the values); actives 1.1% (n = 300,000); AID 2216;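 active means most replicates above 15%; inconclusive means exactly half above 15%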;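 further: 0% = DMSO wells and 100% = Ran loaded with GDP instead of GTP; wells of about 40 µL received 100 nL stock; the first replicate is given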
HNF4A DNA FP: change in binding of human HNF4 alpha to DNA; AID 1224865; HNF4a-FITC DNA binding, fluorescence polarization, 1 h; activity change, % at 10 µM; P41235; actives 0.3% (n = 360,000); in the data active means activity change above about 30%, passing the limit was not always enough;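 further: controls were the assay level and a saturating level of protein; the project sought stronger binding though the title names inhibitors; some compounds called inactive have numbers as strong as hits; positive values seem to mean higher polarization but the record does not say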
E coli growth: blocks Escherichia coli growth; OD600, 23 h; hits give low values; OD600 absorbance (concentration not given with the values); actives 0.21% (n = 330,000); AID 1053175;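 active means OD600 absorbance below the run mean of sample wells minus 3.6 SD, in any replicate, cut at about 0.56 in these data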;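 further: stock transfer was 300 nL into about 60 µL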
Vif A3G: HIV-1 Vif–A3G interaction blockers – biochemical, TR-FRET, GST-Vif 1-94, biotin-A3G peptide, dose response retest, primary screen (AID 1117319); TR-FRET GST-Vif / biotin-A3G peptide binding; higher % means a stronger effect; test concentration not given here; strong numbers were not always called active; inhibition, %, or IC50 in µM where a hit was titrated; actives 0.57% (n = 260,000);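 active means above the screen mean plus three standard deviations and confirmed in dose response; inconclusive means results disagree or hit not tested in dose response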;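 further: Vif residues 1-94 fused to GST binding biotinylated APOBEC3G peptide 110-148; 0% = full assay without inhibitor and 100% = GST in place of GST-Vif; retest series ran down from 100 µM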
* hit, by the source's call; i = inactive; ? = inconclusive; . = not tested or not shown; + = active, no number; & = joins results of further samples.

AF4-AF9 inh,UCH37 inh,FGF22 binding,RanGTP-Impb inh,HNF4A DNA FP,E coli growth,Vif A3G,canonical_smiles
1.4,-0.9,i,.,-0.3,0.651,.,CC1CC(C)CN(c2ccc(S(=O)(=O)N3CCOCC3)cc2)C1 (stereo not drawn)
.,6.1,.,9.4,-2.5,0.739,-1.6%,COC(=O)c1cc2ccccn2c2c(C(=O)OC)c(C(=O)OC)cc1-2
-1.9,6.4,i,3.5,-4.7,0.619,0.9%,CC(C)N(Cc1ccccc1)S(=O)(=O)c1cccs1
.,-16.1,.,-0.5,0.2,0.737,.,COc1ccc(C)cc1N(C(=O)c1ccccc1F)c1nc2ccccc2s1
-3.6,1.8,+,2.2,1.2,0.649,1.4%,Cc1ccc(S(=O)(=O)NCCC(=O)Nc2ccc(C)c(Cl)c2)cc1C
.,-1.9,.,-0.5,-1.9,0.779,21.0%,CN(C)CCCNC(=O)CC(c1ccc(F)cc1)c1ccco1 (stereo not drawn)
1.6,0.3,i,.,5.7,0.749,-0.8%,COc1ccc(NC(=O)C2CCCN2S(=O)(=O)c2ccc3c(c2)CCC(=O)N3)cc1Cl (stereo not drawn)
-2.0,3.8,i,0.3,2.3,0.705,.,COc1ccc(C(=O)CSc2nnn(-c3cccc(NC(C)=O)c3)n2)cc1
-9.2,-1.0,i,0.2,-0.1,0.64,-0.3%,CCCCN(C(=O)c1ccc(S(=O)(=O)N2CCC(C)CC2)cc1)C1CCS(=O)(=O)C1 (stereo not drawn)
-4.4,3.8,i,5.8,0.4,0.661,.,CCOc1ccc(OCC(=O)OCn2c(SC)nnc(C)c2=O)cc1
.,-1.0,.,-0.3,2.6,0.702,-3.7%,CC(=O)NCN1CCN(CNC(C)=O)CC1
2.3,8.8,i,3.5,-1.1,0.609,.,Cc1ccc(C(=O)Nc2cccc(NC(=O)c3cccnc3)c2)cc1
0.6,5.1,i,-2.5,1.4,0.651,0.2%,Cc1ccc(C(=O)OCC(=O)N(CC(C)C)c2c(N)n(Cc3ccccc3)c(=O)[nH]c2=O)o1
.,0.8,.,1.4,0.7,0.743,1.9%,Cc1cc(C)c2c(-n3cccc3)c(NC(=O)OCc3ccccc3)sc2n1
0.0,10.1,i,-1.3,1.2,0.705,.,Cc1cc(N2C(=O)C(O)=C(C(=O)c3ccco3)C2c2ccc(Cl)cc2)no1 (stereo not drawn)
3.1,1.9,i,3.1,1.4,0.66,4.5%,Cc1ccc(Nc2nc3ccccc3c(=O)s2)cc1C
-4.1,5.0,i,3.5,-3.4,0.637,23.8%,Cn1c(NC(=O)c2ccc(F)cc2)c(-c2cccs2)c(=O)c2ccccc21
7.4,5.6,i,-2.6,-1.4,0.671,.,Cc1nnc2n(c1=O)N=C(c1ccc(Cl)cc1)CS2
0.9,16.0,i,-33.7,0.6,0.659,.,CN(C)c1ccc(/C=C(\NC(=O)c2ccccc2)C(=O)NCCN2CCOCC2)cc1
5.7,0.2,i,.,0.0,0.678,-2.7%,CN(CC(=O)Nc1ccc(Cl)cc1)C(=O)CNC(=O)c1cccs1
1.5,0.8,i,.,1.1,0.697,.,Cc1cc(NC(=O)c2ccc(-c3ccccc3[N+](=O)[O-])o2)no1
1.7,5.6,i,-1.0,1.6,0.661,-4.0%,Nc1cnn(Cc2ccc(F)cc2)c1
-3.7,-5.2,i,.,4.5,0.658,6.1%,Cn1c(=O)c2[nH]c(Cc3ccsc3)nc2n(C)c1=O
.,3.1,.,5.5,3.1,0.711,1.0%,CC12CC(NC(=O)N1Cc1ccccc1)c1ccccc1O2 (stereo not drawn)
-0.1,4.9,i,3.0,2.0,0.671,-5.0%,CCOC(=O)Cc1csc(NC(=O)CCCC(=O)O)n1
8.9,7.4,i,-2.6,0.4,0.744,3.0%,O=C(c1ccc2c(c1)C(=O)N(Cc1ccco1)C2O)N1CCOCC1 (stereo not drawn)
-32.0,3.6,i,-5.1,0.1,0.691,.,O=C(O)/C=C/C(=O)Nc1ccccc1-c1ccccc1NC(=O)/C=C/C(=O)O
0.4,1.2,i,7.6,-2.1,0.702,-0.8%,O=S(=O)(Nc1ccc(Br)cc1)N1CCOCC1
-0.9,.,i,.,-0.3,.,5.3%,COc1ccc(NC(=O)C[C@H]2C(=O)N(c3ccc(OC)cc3)C[C@@H]2C)cc1
.,-3.3,.,0.9,-0.7,0.714,5.6%,Nn1c(Cc2cccc3ccccc23)nnc1SCc1ccccc1Cl
-15.5,3.0,i,3.6,3.8,0.656,.,Cc1ccc(CN2CCN(Cc3ccco3)CC2)cc1
.,-4.8,.,4.6,-3.6,0.696,16.5%,CCC(C)(C)NC(=O)C1CCN(c2nc(C)cc(C)n2)CC1
.,0.3,.,1.2,0.1,0.702,2.1%,Cc1cc(C)nc(NC2=NCC(=O)N2c2ccc(F)c(Cl)c2)n1
.,0.1,.,?,-2.3,0.716,-0.8%,O=S(=O)(NCc1cc(-c2ccc(Cl)cc2)no1)c1ccc(Cl)cc1
-4.9&-5.0&2.1,1.4&3.2,i,-1.5,-2.2&3.5,.,-2.6%,C[C@]12CCC(=O)C=C1CC[C@@H]1[C@@H]2[C@@H](O)C[C@@]2(C)[C@H]1CC[C@]2(O)C(=O)CO
1.9,4.7,i,.,-0.3,0.683,.,COc1cc(C(C)=O)ccc1OCC(=O)Nc1cc(S(=O)(=O)N2CCOCC2)ccc1N1CCCC1
0.4,2.7,i,3.2,-1.1,.,.,CCN1C(=O)[C@H]2[C@@H](c3ccc(-c4ccccc4)cc3)N[C@@](C)(C(=O)OC)[C@H]2C1=O
0.2,4.0,i,4.5,1.4,0.655,.,CCOc1ccc(CCNC(=O)CN2C(=O)NC3(CCCC3)C2=O)cc1OCC
.,4.8,.,-0.1,2.7,0.669,6.5%,N=c1c2c(ncn1CCN1CCOCC1)Oc1ccc3ccccc3c1C2c1ccccc1 (stereo not drawn)
1.8,-0.6,i,-0.2,0.6,0.698,.,OCCC1CN(Cc2cn[nH]c2C2CCCCC2)CCN1C1CCCC1 (stereo not drawn)
.,4.8,.,?,-1.2,0.667,0.3%,CC(C)c1ccccc1OCCNS(C)(=O)=O
.,3.7,i,-0.7,-1.0,0.708,.,Brc1nc(-c2ccccc2)nc(-c2ccccc2)c1Br
-0.5&-9.7,.,i,2.7,10.1&10.2,.,-1.4%,COc1cc(NC(=O)c2cc(C)on2)cc(C(=O)Nc2cccc(C(F)(F)F)c2)c1
-1.8,1.6,i,?,1.5,0.723,-5.2%,CCOC(=O)c1ccc(NC(=O)Nc2ccccn2)cc1
1.8,0.8,i,-1.2,2.7,0.646,.,O=C(Nc1ccc(S(=O)(=O)N2CCOCC2)cc1)c1ccc([N+](=O)[O-])cc1Cl
-4.9,0.1,i,-0.9,2.1,0.68,-2.4%,COc1cc(NC(=S)NCc2ccco2)c(OC)cc1Cl
.,2.2,.,1.9,-2.1,0.696,-25.7%&-18.9%,COc1ccc2[nH]c(=O)c(CN(Cc3cccs3)S(=O)(=O)c3cccc4nsnc34)cc2c1
13.1,0.8,i,-0.9,-0.8,0.573,?,O=C(NNc1nc(-c2ccccc2)cs1)c1cccs1

Part of the list above in order of length of the SMILES, low to high:
AF4-AF9 inh,UCH37 inh,FGF22 binding,RanGTP-Impb inh,HNF4A DNA FP,E coli growth,Vif A3G,canonical_smiles
-0.1,4.9,i,3.0,2.0,0.671,-5.0%,CCOC(=O)Cc1csc(NC(=O)CCCC(=O)O)n1
-4.4,3.8,i,5.8,0.4,0.661,.,CCOc1ccc(OCC(=O)OCn2c(SC)nnc(C)c2=O)cc1
0.6,5.1,i,-2.5,1.4,0.651,0.2%,Cc1ccc(C(=O)OCC(=O)N(CC(C)C)c2c(N)n(Cc3ccccc3)c(=O)[nH]c2=O)o1

Next part
AF4-AF9 inh,UCH37 inh,FGF22 binding,RanGTP-Impb inh,HNF4A DNA FP,E coli growth,Vif A3G,canonical_smiles
-0.2,.,i,.,-0.4,.,.,Nc1nc2ncccc2cc1C(=O)NC1CCCCC1
-10.8,6.7,i,.,0.6,0.682,-2.5%,C=CCN1C(C(=O)c2ccccc2)=C(OC(=O)COc2ccccc2)c2ccccc2S1(=O)=O
.,3.4,.,0.8,-1.8,0.721,0.6%,CCCN1Cc2cccc(C(N)=O)c2C1=O
.,1.3,.,1.4,-0.3,0.754,-4.2%,CC(=O)c1cccc(NC(=O)N2CCCC2C(=O)NC2CCCCC2)c1 (stereo not drawn)
7.7,-0.3,i,2.3,3.0,0.724,-0.1%,CCCCCn1c(CNC(=O)CC)nc2ccccc21
2.7,2.7,i,-0.1,2.4,0.665,-2.4%,O=C(CCN1N=C(c2ccccc2)CCC1=O)NCC1COc2ccccc2O1 (stereo not drawn)
0.5,4.0,i,1.2,3.3,0.663,.,O=C(COc1ccccc1)N=C1SC2CS(=O)(=O)CC2N1CCc1ccccc1 (stereo not drawn)
0.9,3.9,i,1.4,-2.3,0.671,-8.7%,C=CCOc1ccccc1CNc1ccccc1C
.,5.8,.,1.3,1.5,0.671,3.8%,O=C(Nn1cnnc1)c1cc(-c2ccccn2)nc2ccccc12
-16.0,-18.8,i,-1.4,-1.9,0.678,26.0%,COCCOC(=O)C1=C(C)NC2=C(C(=O)CC(C)(C)C2)C1c1ccc2c(c1)OCO2 (stereo not drawn)
-8.4,-0.3,i,1.7,-5.5,0.627,-2.4%,CC(=O)Nc1ccc(NC(=O)C2CC(=O)N(c3cccc(Cl)c3)C2)cc1 (stereo not drawn)
1.1,-2.4,i,.,2.8,0.706,-16.6%,S=C(Nc1ccccc1)Nc1ccc2ccccc2c1
.,-0.2,.,-1.3,2.3,0.685,0.2%,C1COCCNCCOCCOCCN1
-7.4,1.3,i,.,-4.6,0.753,.,C[C@H](CO)N1C[C@H](C)[C@@H](CN(C)C)Oc2c(NC(=O)CCC(F)(F)F)cccc2C1=O
7.7,.,i,.,-6.1,.,-0.6%,COc1cc2c(cc1O)C(CSC)Cc1cc3c(cc1N(C)CC2)OCO3 (stereo not drawn)
.,2.1,.,2.5,-1.5,0.725,-1.4%,COCCCNC(=O)C1CC(=O)OC1c1ccc(OC)c(OC)c1 (stereo not drawn)
-0.1,6.2,i,?,.,0.657,.,Cc1nnc(N/N=C/c2c(O)n(-c3cccc(C(F)(F)F)c3)c(=O)c3ccccc23)[nH]c1=O
-0.9,-33.9,i,?,-3.3,0.618,10.7%,COCCNc1ncnc2c1[nH]c1ccccc12
5.7,0.1,i,1.6,1.7,0.67,?,COc1cccc(CC2(CO)CCN(Cc3cccn3-c3cccnc3)CC2)c1
4.7,4.5,i,-0.9,-2.9,0.702,.,CCOc1ccccc1NS(=O)(=O)c1c[nH]c(C(=O)OC)c1
4.0,2.5,i,6.0,-4.2,0.695,-11.8%,CC(C)(C)NC(=O)c1ccc2c(c1)CCO2
-1.8,5.1,i,3.0,-0.9,0.69,10.7%,N#CC1=C(N)OC2=C(C(=O)CCC2)C1c1cccs1 (stereo not drawn)
.,-1.3,.,8.9,2.2,0.686,-1.6%,CCc1ccc(C(=O)N2CCCC2)s1
.,2.9,i,-4.2,-0.7,0.685,.,CC(=O)N/C(=C\c1ccc2c(c1)OCO2)C(=O)NC(C(=O)O)c1ccccc1 (stereo not drawn)
-0.3,3.7,i,-2.7,0.3,0.662,.,O=C(Cc1ccc(Cl)cc1)NCC(=O)N1CCN(Cc2ccccc2)CC1
0.2,3.8,i,-1.4,1.0,.,10.2%,O=C(C1=C[C@H](c2ccccc2)C[C@H](OCCCCO)O1)N1CCOCC1
-0.2,.,i,-8.4,3.1,.,1.3%,COc1ccc(NC(=O)C(=O)N/N=C(\C)CC(=O)Nc2ccccn2)c(OC)c1

Screening results: PubChem, several laboratories

An excerpt. The share of hits here may be higher or lower than overall.
